Screening data as filed in PubChem.
Calb biofilm kill = clotrimazole potentiators killing C. albicans biofilm, primary screen, 4-compound mixtures | C. albicans biofilm persisters + clotrimazole, fluorescence viability; primary screen in compound mixtures of four per well | inhibition, % at 7.6 µM | 0.02% of 120,000 active;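 active means inhibition above 30.3% in the primary screen of four-compound pools, then above 30% when the compound was retested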;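 further: compounds exposed to preformed 24 h biofilms for 48 h; the number belongs to the whole pool; some results filed as inactive read as strong as hits; inactives centre near 12; 0% = biofilm with clotrimazole alone and 100% = kill control; retested singly at about 60 µM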
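Test system: C. albicans CAF4-2 wild-type biofilms; buffer or medium: RPMI/MOPS medium, pH 7.0; schedule: 24 h biofilm formation, then 48 h compound exposure, 37 °C; detection: Alamar Blue fluorescence; measure: percent inhibition of biofilm viability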
An asterisk follows results filed as active.

Results for Fc1ccc(-n2nnc(-c3cccnc3)n2)cc1 ?
Calb biofilm kill: 15.1

What do the screens show for `CCN1C(=O)/C(=C/c2ccc(OC)c(OC)c2)N=C1SCC(=O)NCc1ccco1`?
Calb biofilm kill: 15.3

How did O=C(c1ccc(C(F)(F)F)cc1)C1CCCN(C(=O)CCN2CCCO2)C1 (centres undefined) do in these assays?
Calb biofilm kill: 10.8

Results for O=S(=O)(c1cccc(NC(=S)N2CCN(c3ccccc3)CC2)c1)C(F)F ?
Calb biofilm kill: 1.2

How did CC(=O)Nc1nc(C(F)(F)F)cs1 do in these assays?
Calb biofilm kill: 12.8

What do the screens show for `Cc1ccccc1-n1nc(SCC(=O)O)sc1=S`?
Calb biofilm kill: 12.6

Results for Cc1cc(C(=O)COC(=O)CN=C2NS(=O)(=O)c3ccccc32)c(C)n1CCc1ccc(Cl)cc1 ?
Calb biofilm kill: 3.9

Results for COc1ccc(N2CCN(C(=O)c3ccccc3Br)CC2)c([N+](=O)[O-])c1 ?
Calb biofilm kill: 13.4

How did CCOc1ccccc1/C=C(\C#N)C(=O)Nc1cccc(C(=O)O)c1 do in these assays?
Calb biofilm kill: 18.6

Results for O=C(Nc1nnc(-c2ccccc2)o1)c1cc(Cl)sc1Cl ?
Calb biofilm kill: 9.6

Results for Cc1ccc(C)c(S(=O)(=O)N2CCN(c3ncccn3)CC2)c1 ?
Calb biofilm kill: 15.4

How did CCOc1ccc(C2C(C(=O)c3ccc(C)o3)=C(O)C(=O)N2CCCN(CC)CC)cc1 (centres undefined) do in these assays?
Calb biofilm kill: 4.3

How did CCCCCCC(=O)N/N=C1\CCCc2ccccc21 do in these assays?
Calb biofilm kill: 14.4

What do the screens show for `COc1cccc(-c2ccc(SCC(=O)c3ccccc3)nn2)c1`?
Calb biofilm kill: 6.1

Results for Cc1ccc(C)c(NC(=O)COC(=O)CCC(=O)c2cccs2)c1 ?
Calb biofilm kill: 8.7

Results for CCOC(=O)Cc1csc(NC(=O)CCCC(=O)O)n1 ?
Calb biofilm kill: 19.1

How did COc1cc(N2C(=O)c3ccccc3C2=O)c(Cl)cc1C(=O)OCC(=O)N(C)C do in these assays?
Calb biofilm kill: 9.8

Results for O=Cc1cn(-c2ccccc2)nc1-c1ccc2c(c1)OCCO2 ?
Calb biofilm kill: 13.9

Results for Cc1cc(O)c2/c(=N\N)c(-c3csc(C)n3)coc2c1 ?
Calb biofilm kill: 1.9

How did O=C(N/N=C/C=C/c1ccco1)c1cccs1 do in these assays?
Calb biofilm kill: 10.2

What do the screens show for `N#Cc1cc(Br)ccc1N=C1CCCN1c1ccccc1`?
Calb biofilm kill: 9.6

Results for N#C/C(C(=O)NCc1ccccc1)=C1/N=C(NC(=O)c2cccs2)c2ccccc21 ?
Calb biofilm kill: 9.2

How did CC(C)c1ccc(C(=O)NNC(=O)C2CC=CCC2C(=O)O)cc1 (centres undefined) do in these assays?
Calb biofilm kill: 8.3

What do the screens show for `Cc1cc(C)n(-c2ccc(C(=O)Nc3ccc(C)c(S(=O)(=O)N4CCOCC4)c3)cc2)n1`?
Calb biofilm kill: 1.3

What do the screens show for `O=C(Nc1ccccn1)C(F)(F)C(F)(F)C(F)(F)C(F)(F)C(=O)Nc1ccccn1`?
Calb biofilm kill: 12.5

What do the screens show for `CCC(=O)N1CCc2cc(S(=O)(=O)CCC(=O)NC(C)CC)ccc21` (centres undefined)?
Calb biofilm kill: -0.8

Results for Cc1ccc(S(=O)(=O)NNC(=O)CC#N)cc1 ?
Calb biofilm kill: 19.4

Results for COc1ccc(-c2[nH]ncc2CN(C)CCc2c(C)n[nH]c2C)c(F)c1 ?
Calb biofilm kill: 13.9

Results for Nc1ccc2c(c1)CC(=O)c1ccccc1S2 ?
Calb biofilm kill: 9.2

Results for NC(=O)CS(=O)(=O)c1ccc(Cl)cc1 ?
Calb biofilm kill: 15.5

Results for O=C(Nc1cccnc1)c1cc(-c2cc(Cl)ccc2O)n[nH]1 ?
Calb biofilm kill: 11.0

What do the screens show for `COc1ccc2nc(SCc3ccccc3)nc(C)c2c1`?
Calb biofilm kill: 23.4

Results for O=C(Nc1cccc(C(F)(F)F)c1)c1scc2c1OCCO2 ?
Calb biofilm kill: 11.0

Results for O=C(COc1ccc(Cl)cc1Cl)NN1C(=O)/C(=C\c2ccc(Cl)cc2)SC1=S ?
Calb biofilm kill: 22.2

What do the screens show for `Cn1/c(=N/NC(=O)c2cccc(OC(F)F)c2)sc2ccccc21`?
Calb biofilm kill: 9.1

What do the screens show for `CCn1c(=NC(=O)c2cccc(N3C(=O)CCC3=O)c2)sc2c(OC)ccc(OC)c21`?
Calb biofilm kill: 16.6

How did Cc1c(C(=O)Nc2nnc(C(F)(F)F)s2)oc2ccccc12 do in these assays?
Calb biofilm kill: 17.3

What do the screens show for `COc1ccc(CNC(=O)C(c2ccncc2)N(C(=O)Cc2cccs2)c2cccnc2)cc1` (centres undefined)?
Calb biofilm kill: 18.5

Results for CCOC(=O)c1ccc(NS(=O)(=O)c2ccc(Cl)nc2)cc1 ?
Calb biofilm kill: 17.1

What do the screens show for `COc1ccc2nc(/N=C(\N)NC(=O)N3c4ccccc4Sc4ccccc43)nc(C)c2c1`?
Calb biofilm kill: -10.8

Overlap with the part before: 4 compounds, followed by the next part.
How did Cc1c(C(=O)Nc2nnc(C(F)(F)F)s2)oc2ccccc12 do in these assays?
Calb biofilm kill: 17.3

What do the screens show for `COc1ccc(CNC(=O)C(c2ccncc2)N(C(=O)Cc2cccs2)c2cccnc2)cc1` (centres undefined)?
Calb biofilm kill: 18.5

Results for CCOC(=O)c1ccc(NS(=O)(=O)c2ccc(Cl)nc2)cc1 ?
Calb biofilm kill: 17.1

What do the screens show for `COc1ccc2nc(/N=C(\N)NC(=O)N3c4ccccc4Sc4ccccc43)nc(C)c2c1`?
Calb biofilm kill: -10.8

How did Cc1ccccc1Nc1nc(-c2cccnc2)nc2ccccc12 do in these assays?
Calb biofilm kill: 13.4

What do the screens show for `O=C(CCN1C(=O)C2C3C=CC(C3)C2C1=O)Oc1ccc2ccccc2c1` (centres undefined)?
Calb biofilm kill: 9.2

How did Cc1cccc2c(=O)cc(C(F)(F)F)[nH]c12 do in these assays?
Calb biofilm kill: 26.9

What do the screens show for `O=[N+]([O-])c1ccc2oc(C3CCCCC3)nc2c1`?
Calb biofilm kill: 24.1

How did CN(Cc1ccc(Cl)s1)C(=O)CCl do in these assays?
Calb biofilm kill: -5.3

How did CC(=O)Nc1ccc(NS(=O)(=O)c2ccc(C)cc2)cc1[N+](=O)[O-] do in these assays?
Calb biofilm kill: 9.5

How did Cc1csc(NC(=O)C2CCN(C(=O)c3ccccc3C)CC2)n1 do in these assays?
Calb biofilm kill: 17.7

Results for COCCn1c(=NC(=O)c2ccco2)sc2cc(C(=O)OC)ccc21 ?
Calb biofilm kill: 11.7

Results for CCO[C@H]1OC(C(=O)N2CCOCC2)=C[C@@H](c2ccc3c(c2)OCO3)[C@@H]1CCCO ?
Calb biofilm kill: 16.6

How did COc1ccc(C2c3ccc(O)cc3Oc3ncn4nc(-c5cccnc5)nc4c32)cc1OC (centres undefined) do in these assays?
Calb biofilm kill: 8.4

Results for N/C(=N\OC(=O)COc1ccc(Br)cc1)c1cccnc1 ?
Calb biofilm kill: 6.1

Results for CCOC(=O)C(=O)Nc1nnc(COc2ccccc2)s1 ?
Calb biofilm kill: 44.8

What do the screens show for `COc1ccc(/C=N/n2c(C)nc3sc(C)c(C)c3c2=O)cc1OC`?
Calb biofilm kill: 10.7

Results for CC(C)CNC(=O)C(=O)NN=C1CCCCCC1 ?
Calb biofilm kill: 11.4

What do the screens show for `CN=C1SC(CC(=O)Nc2ccc(F)cc2F)C(=O)N1/N=C/c1ccc(OC(F)F)c(OC)c1` (centres undefined)?
Calb biofilm kill: 14.2

Results for N/C(Cc1ccc([N+](=O)[O-])cc1)=N\OC(=O)c1ccccc1F ?
Calb biofilm kill: 15.6

What do the screens show for `COc1ccc(CCNC(=O)c2ccc(Cl)cc2)cc1OC`?
Calb biofilm kill: 6.2

What do the screens show for `O=C(O)CC(NC(=O)C12CC3CC(CC(C3)C1)C2)c1ccc2c(c1)OCO2` (centres undefined)?
Calb biofilm kill: 8.6

What do the screens show for `CCCCCCCn1c(C)nnc1-c1cnn(C)c1N`?
Calb biofilm kill: 18.4

How did Cc1ccc(/C=C2\SC(=S)N(C3CCS(=O)(=O)C3)C2=O)o1 (centres undefined) do in these assays?
Calb biofilm kill: 22.7

The list goes on (3 carried over from the part before).
What do the screens show for `O=C(O)CC(NC(=O)C12CC3CC(CC(C3)C1)C2)c1ccc2c(c1)OCO2` (centres undefined)?
Calb biofilm kill: 8.6

What do the screens show for `CCCCCCCn1c(C)nnc1-c1cnn(C)c1N`?
Calb biofilm kill: 18.4

How did Cc1ccc(/C=C2\SC(=S)N(C3CCS(=O)(=O)C3)C2=O)o1 (centres undefined) do in these assays?
Calb biofilm kill: 22.7

What do the screens show for `Cc1cc(C)cc(-n2c(C)cc(/C=N\NC(=O)COc3cccc4cccnc34)c2C)c1`?
Calb biofilm kill: 17.4

Results for COc1nc(N/N=C/c2ccc(-c3ccccc3[N+](=O)[O-])o2)nc(N2CCOCC2)n1 ?
Calb biofilm kill: 7.8

How did OCC1(Cc2cccc(Cl)c2)CCCN(Cc2cnn(-c3ccccc3)c2)C1 (centres undefined) do in these assays?
Calb biofilm kill: 15.8

How did O=c1oc2c(CN3CCN(CCO)CC3)c(O)ccc2cc1-c1ccccn1 do in these assays?
Calb biofilm kill: 8.4

Results for Cc1ccc(C(=O)NCCN2CCOCC2)cc1 ?
Calb biofilm kill: 7.5

Results for Cc1cc(-c2n[nH]c(=S)n2/N=C/c2cccc(O)c2)n[nH]1 ?
Calb biofilm kill: 17.5

How did COc1ccc(Br)cc1CNC(=O)C1CCN(C(=O)N(C)C)CC1 do in these assays?
Calb biofilm kill: 8.2

Results for Cc1cc(C)nc(NC2=NCCN2C(=S)Nc2c(C)cccc2C)n1 ?
Calb biofilm kill: 13.4

Results for COC(=O)c1ccccc1NC(=O)CSc1ncn[nH]1 ?
Calb biofilm kill: 12.2

What do the screens show for `c1ccc(-c2nnc(SCC3CCCO3)nc2-c2ccccc2)cc1` (centres undefined)?
Calb biofilm kill: -0.7

What do the screens show for `CN(C)/C=C/C(=O)c1ccc(Oc2ccccc2)cc1`?
Calb biofilm kill: -30.6

What do the screens show for `COc1ccc(NC(=O)COC(=O)c2ccc([N+](=O)[O-])o2)cc1Cl`?
Calb biofilm kill: 5.0

What do the screens show for `COc1ccc(/C=N/NC(=O)c2ccc(=O)[nH]n2)cc1OC`?
Calb biofilm kill: 14.0

How did CC(NCc1ccc(S(N)(=O)=O)cc1)C(=O)N1c2ccccc2CC1C (centres undefined) do in these assays?
Calb biofilm kill: 16.6

How did Cc1ccnc(NS(=O)(=O)c2ccc(NC(=O)c3ccc(S(=O)(=O)N(C)C)cc3)cc2)n1 do in these assays?
Calb biofilm kill: 7.8

What do the screens show for `COC(=O)Cc1ccc(NC(=S)N2CCN(C)CC2)cc1`?
Calb biofilm kill: -3.3

Results for COc1ccccc1NC(=O)CSCc1nc2ccccc2[nH]1 ?
Calb biofilm kill: 9.6

Results for O=C(CSc1ccc(Cl)cc1)NN=C1CCCCCC1 ?
Calb biofilm kill: 5.8

What do the screens show for `CCOc1cc(/C=N/NC(=O)c2ccc(O)cc2)ccc1Oc1nc(Cl)ncc1F`?
Calb biofilm kill: -1.8

What do the screens show for `O=C(CN(CC1CCCO1)C(=O)CCC(=O)Nc1nccs1)NCc1ccccc1` (centres undefined)?
Calb biofilm kill: 4.5

How did CCC(=O)NC(c1ccc(OC)cc1)c1c(O)ccc2ccccc12 (centres undefined) do in these assays?
Calb biofilm kill: 5.3

How did O=C(/C=C/c1ccco1)NC(=S)Nc1cc(-c2nc3ccccc3s2)ccc1Cl do in these assays?
Calb biofilm kill: 16.2

How did O=C(CCc1ccccc1)NC(=S)Nc1ccccc1Br do in these assays?
Calb biofilm kill: 8.2

How did CNC(=S)N/N=C(\C)c1ccc(C(C)(C)C)cc1 do in these assays?
Calb biofilm kill: 10.4

Results for Cc1ccc(C(=O)NNC(=O)CSc2nnc(CNc3ccc(F)cc3)n2C)cc1 ?
Calb biofilm kill: -5.1

Results for Cc1c(NC(=O)C(=O)/C=C(/O)c2ccccc2)c(=O)n(-c2ccccc2)n1C ?
Calb biofilm kill: 15.2

What do the screens show for `C[C@@]12CCC=C[C@H]1[C@H](c1ccc(C(F)(F)F)cc1)N(Cc1ccccc1)C2=O`?
Calb biofilm kill: 15.5

Results for OCCN(CC#CC(O)(c1ccccc1)c1ccccc1)CCO ?
Calb biofilm kill: 22.8

Results for CCn1c2ccccc2c2cc(CN3CCN(Cc4cc(OC)ccc4O)CC3)ccc21 ?
Calb biofilm kill: 11.0

Results for O=C(Nc1ccccn1)c1onc2c1CCCC2 ?
Calb biofilm kill: 2.7

What do the screens show for `CC(=O)c1cccc(NC(=O)C2(c3ccccc3)CC2(Cl)Cl)c1` (centres undefined)?
Calb biofilm kill: 17.4

How did Cc1ccc(N(CC(=O)NC2CCCC2)C(=O)c2ccc(C)s2)cc1 do in these assays?
Calb biofilm kill: 13.1

How did CC(=O)c1cccc(NC(=O)Nc2csc3c2CCCC3)c1 do in these assays?
Calb biofilm kill: 14.5

How did CSc1nnc2c(n1)OC(c1ccccn1)N(C(C)=O)c1ccccc1-2 (centres undefined) do in these assays?
Calb biofilm kill: 11.4

What do the screens show for `CCN1CCN(Cc2ccc(NC(=O)c3ccc(C)c(NC(=O)c4ccc5n[nH]nc5c4)c3)cc2C(F)(F)F)CC1`?
Calb biofilm kill: 17.8

What do the screens show for `CCOc1ccc(S(=O)(=O)n2cc(F)c(=O)[nH]c2=O)cc1`?
Calb biofilm kill: 8.6

What do the screens show for `COc1ccccc1N1CCN(CC(=O)Nc2ccc(-n3cnnn3)cc2)CC1`?
Calb biofilm kill: 16.3

What do the screens show for `COc1cc(/C=N\NC(=O)c2ccccc2F)ccc1Oc1ccc([N+](=O)[O-])cn1`?
Calb biofilm kill: 13.4

Results for CCNS(=O)(=O)c1ccc(NC(=O)c2c(-c3ccccc3)noc2C)cc1 ?
Calb biofilm kill: 2.0

These rows are one share of the data; the hit share may differ from the screen's.
